HNF4A DNA FP: change in binding of human HNF4 alpha to DNA. P41235. activity change, % at 10 µM. hit rate 0.3% among 360,000. HNF4a-FITC DNA binding, fluorescence polarization, 1 h; in the data active means activity change above about 30%, passing the limit was not always enough;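 further: controls were the assay level and a saturating level of protein; the project sought stronger binding though the title names inhibitors; some compounds called inactive have numbers as strong as hits; positive values seem to mean higher polarization but the record does not say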
Target sequence (P41235 whole entry, looked up): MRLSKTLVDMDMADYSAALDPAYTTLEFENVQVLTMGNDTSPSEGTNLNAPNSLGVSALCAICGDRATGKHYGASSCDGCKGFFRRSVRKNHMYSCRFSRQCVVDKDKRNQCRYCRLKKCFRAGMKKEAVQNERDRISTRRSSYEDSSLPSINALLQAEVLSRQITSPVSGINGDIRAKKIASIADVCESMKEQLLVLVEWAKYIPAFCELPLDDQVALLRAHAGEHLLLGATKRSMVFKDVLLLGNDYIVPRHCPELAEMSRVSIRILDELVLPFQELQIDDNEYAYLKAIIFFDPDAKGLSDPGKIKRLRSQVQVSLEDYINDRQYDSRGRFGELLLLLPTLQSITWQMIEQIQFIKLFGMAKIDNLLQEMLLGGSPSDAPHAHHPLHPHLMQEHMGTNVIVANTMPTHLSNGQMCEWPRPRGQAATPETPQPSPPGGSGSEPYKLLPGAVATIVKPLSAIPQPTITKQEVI
Ecoli growth: E. coli growth inhibition; hit rate 0.21% among 330,000; OD600 absorbance (test concentration not listed); Escherichia coli growth, OD600, 23 h; hits give low values;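 active means OD600 absorbance below the run mean of sample wells minus 3.6 SD, in any replicate, cut at about 0.56 in these data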;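 further: stock transfer was 300 nL into about 60 µL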
rRNA inh HTS: inhibits bacterial ribosomal RNA function over humanized ribosomes; E. coli WT GFP vs humanized-ribosome RFP mutants, fluorescence, 24 h; hits give low values; DMSO median 0, no signal -100; GFP signal change (wild-type ribosome), % (concentration not given with the values); hit rate 1.6% among 350,000; AID 720706;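 active means significant combined selectivity score with lowered wild-type GFP, culture density cut under 30%, mutant RFP and density less affected; inactive means any of these conditions unmet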; further: one replicate is shown; some compounds called inactive have numbers as strong as hits
AF4-AF9 inh: MLL-AF4/AF9 protein interaction inhibition | inhibition, % at 10 µM | AID 651704 | AlphaScreen, biotin-AF4 peptide binding to FLAG-AF9 | P42568 | hit rate 0.47% among 350,000;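 active means every replicate reaching a set inhibition limit, whatever the replicate mean, cut at about 25% in these data; inconclusive means mean inhibition reaches that limit but some replicates miss it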;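 further: 0% = plate neutral control median and 100% = total signal loss; the record names both 10 and 1 µM as test concentration; the first replicate is given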
Vif A3G: HIV-1 Vif–A3G interaction blockers – biochemical, TR-FRET, GST-Vif 1-94, biotin-A3G peptide, dose response retest, primary screen (AID 1117319); hit rate 0.57% among 260,000; one-dose inhibition, %; IC50 in µM for titrated hits; TR-FRET GST-Vif / biotin-A3G peptide binding; higher % means a stronger effect; test concentration not given here; strong numbers were not always called active;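 active means above the screen mean plus three standard deviations and confirmed in dose response; inconclusive means results disagree or hit not tested in dose response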;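 further: Vif residues 1-94 fused to GST binding biotinylated APOBEC3G peptide 110-148; 0% = full assay without inhibitor and 100% = GST in place of GST-Vif; retest series ran down from 100 µM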
FGF22 binding: binders of recombinant human FGF22 by thermal shift; Q9HCT0; SYPRO orange fluorescence; percent of sucrose octasulfate shift, DMSO zero; calls only at 9.99 µM; hit rate 1.5% among 340,000; AID 651658;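 active means melting point raised past a set limit in the mean and every replicate; inconclusive means no clear call; three in four hits are not shown here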
Target sequence (Q9HCT0 whole entry, looked up): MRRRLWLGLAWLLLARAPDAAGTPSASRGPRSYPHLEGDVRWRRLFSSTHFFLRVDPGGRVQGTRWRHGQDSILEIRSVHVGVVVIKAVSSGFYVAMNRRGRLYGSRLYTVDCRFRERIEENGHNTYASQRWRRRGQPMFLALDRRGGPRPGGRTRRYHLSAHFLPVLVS
ALR inh: inhibitors of human sulfhydryl oxidase ALR; P55789; purified ALR, DTT oxidation, H2O2 HRP-luminol luminescence; inhibition, % (no concentration beside the values); hit rate 3.8% among 290,000; AID 485317;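 active means mean and each replicate at 75% or more; inconclusive means only one of the two met; inactive means neither met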;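 further: stock transfer was 7.5 nL into about 7.5 µL; 0% = neutral wells and 100% = wells with inactivated enzyme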
Target sequence (P55789 whole entry, looked up): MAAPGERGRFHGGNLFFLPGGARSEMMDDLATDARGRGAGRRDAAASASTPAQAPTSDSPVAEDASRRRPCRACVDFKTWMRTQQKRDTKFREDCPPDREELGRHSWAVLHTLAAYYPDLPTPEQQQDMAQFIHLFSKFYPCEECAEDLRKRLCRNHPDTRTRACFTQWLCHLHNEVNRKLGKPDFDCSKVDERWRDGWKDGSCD
rRNA inh HTS OD600: recorded beside rRNA inh HTS, whose call it bears; OD600 change, %; measured here: OD600 growth;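 optical density of the mix in the first replicate; 0 = DMSO median and -100 = no signal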
rRNA inh HTS RFP: further read-out of rRNA inh HTS, marked with its call; RFP signal change, %; measured here: RFP humanized mutant strains;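 first replicate; 0 = DMSO median and -100 = no signal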
* = called active by the depositor; i = inactive; ? = inconclusive; . = no result given; & = joins results of further samples.

Values run as follows: HNF4A DNA FP	Ecoli growth	rRNA inh HTS	rRNA inh HTS OD600	rRNA inh HTS RFP	AF4-AF9 inh	Vif A3G	FGF22 binding	ALR inh
[1] COC(=O)C[C@H]1C[C@H]2c3cc(NS(=O)(=O)c4cccc(OC)c4)ccc3O[C@H]2[C@H](CO)O1
  .	.	0	-13	32	-1.3	.	i	.
[2] COc1ccc([C@H]2CC(=O)C[C@@H](CCn3cc(C)nn3)O2)cc1
  1.5	.	14	9	0.9	1.9	.	i	.
[3] O=S(=O)(c1ccc(NCCc2c[nH]c3ccccc23)nc1)N1CCOCC1
  -2.4	0.71	.	.	.	.	-5%	.	6
[4] O=C(O)C1=C[C@@H](c2csc3ccccc23)C[C@@H](OCCCCO)O1
  5.0	.	-2	0	-0.9	-2.2&-1.9	-2%	i	.
[5] O=C(/C=C/c1ccco1)Nc1cccc(-c2nc3ccccc3[nH]2)c1
  13	.	.	.	.	.	11%	.	-15
[6] COc1cccc(-c2nc3cc(C)ccc3o2)c1
  0.9	0.66	.	.	.	.	4%	.	-10
[7] CC(C)CCc1c(O)nc(SCC(=O)N2CCCCCC2)[nH]c1=O
  -0.9	.	0	11	-2.5	-0.4	.	i	87*
[8] Cc1ccc(NC(=O)CCN2C(=O)OC(C)(C)C2(C)O)cc1 (centres undefined)
  0.5	0.74	17	5	-1.0	-0.8	14%	i	-2
[9] COc1ccc2c(CC(=O)OCC(=O)Nc3ccc(S(N)(=O)=O)cc3)coc2c1
  0.7	0.7	-16	-15	-2.3	1.1	30%	i	-8
[10] COc1ccc(OC)c(NC(=O)Nc2nnc(N3CCC(C)CC3)s2)c1
  3.1	0.73	4	2	3.3	0.6	-2%	i	-72
[11] COC(=O)C1CCN(C(=O)COC(=O)c2cc([N+](=O)[O-])ccc2N2CCOCC2)CC1
  4.5	0.64	.	.	.	-2.8	-13%	i	-3
[12] Cc1ccc(C(=O)Nc2ccccc2N2CCCCC2)cc1[N+](=O)[O-]
  -1.6	0.69	-5	-4	-1.7	-0.2	4%	i	3
[13] CCCC(C)NC(=O)c1cc(Cl)ccc1OC (centres undefined)
  0.1	0.77	.	.	.	.	-2%	.	1
[14] C[C@@H]1CN([C@@H](C)CO)C(=O)c2cc(C3=CCCC3)cnc2O[C@@H]1CN(C)C(=O)c1ccc(F)cc1
  .	.	9	24	-3.0	-1.6	.	i	.
[15] O=C(NCc1ccc(Cl)c(Cl)c1)c1cc(C2CCCCN2C(=O)c2ccccn2)on1 (centres undefined)
  1.0	.	.	.	.	-0.9	.	i	.
[16] COc1cc(NC(=O)C(F)(F)F)cc(OC)c1
  -1.8	0.68	.	.	.	.	8%	.	-3
[17] Cc1ccc(CN2CCN(Cc3cn[nH]c3-c3ccccc3)CC2CCO)o1 (centres undefined)
  1.9	0.63	-8	2	5.4	0.5	-11%	i	-7
[18] O=C(CCNS(=O)(=O)c1cccc(Cl)c1)OCC(=O)N1CCN(C(=O)c2ccco2)CC1
  -4.2	0.67	.	.	.	-3.2	.	i	.
[19] COc1ccc(CN(C)C(=O)C(Cc2ccccc2)NC(=O)c2ccccc2)c(OC)c1 (centres undefined)
  3.1	0.67	-17	-28	-3.6	2.7	-2%	i	.
[20] COCC(=O)Nc1ccc2c(c1)OC[C@@H](C)N(Cc1cccc(F)c1)C[C@H](C)[C@@H](OC)CN(C)C2=O
  .	.	-4	3	3.8	1.1	.	i	.
[21] CCN1C(=O)[C@H]2[C@@H](c3ccc(-c4ccc5c(c4)OCO5)cc3)N[C@@](Cc3ccccc3)(C(=O)OC)[C@H]2C1=O
  0.6	.	12	15	-4.1	4.7	.	i	-2
[22] Cc1ccc(C(CC(=O)O)NC(=O)CCNC(=O)c2ccco2)cc1 (centres undefined)
  -3.3	0.61	16	5	-0.6	0.6	.	i	.
[23] Cc1ccc(Cn2c(CN3CCOCC3)nc3c2c(=O)[nH]c(=O)n3C)cc1
  3.1	0.61	.	.	.	.	?	.	-1
[24] COc1cccc(C=Nc2cc(C(C)C)c(O)cc2C)c1O
  5.1	0.64	6	14	0.5	12	34µM*	i	.
[25] COc1ccc(C=C(c2nc3ccccc3s2)c2nc3ccccc3s2)cc1O
  13	0.68	.	.	.	.	13%	.	2
[26] Cn1cnc(S(=O)(=O)Nc2ccccc2C(=O)NCC2CC2)c1
  1.9	0.67	23	3	2.3	-5.0	0%	i	.
[27] CSc1ccccc1-c1nnc(-c2ccccc2)o1
  0.8	0.7	.	.	.	.	-11%	.	-4
[28] Cc1ccsc1/C=N/NC(=O)CNC(=O)c1c(F)cccc1Cl
  -1.9	.	2	7	2.1	1.1	.	i	0
[29] COC(=O)c1cc(=O)nc(NN=Cc2ccco2)s1
  -1.1	.	2	11	-2.3	-0.2	.	i	.
[30] O=c1oc(-c2cccs2)nc2ccccc12
  -0.8	0.7	.	.	.	.	?	.	-3
[31] O=C1CCCN2N=C(SCC(=O)Nc3cccc(F)c3)SC2=N1
  1.1	0.68	2	6	0.5	-1.2	.	i	.
[32] CCCN1CCC(=O)N([C@H](CSc2ccccc2)CC(C)C)CC1
  0.7	.	-1	-4	-5.3	-7.7	.	i	.
[33] CN(C)S(=O)(=O)c1cccc(NC(=O)COC(=O)c2cc(=O)[nH]c(=O)[nH]2)c1
  -5.6	0.68	.	.	.	.	-3%	.	-4
[34] CCC(=O)Nc1ccc2c(c1)C(=O)N(C)C[C@@H](OC)[C@H](C)CN(C(=O)COC)[C@@H](C)CO2
  .	.	3	4	-2.2	-0.8	.	i	.
[35] Cc1ccc(NC2CC(=O)N(CCc3ccccc3)C2=O)cc1 (centres undefined)
  -1.3	0.71	-2	-1	3.6	4.5	4%	i	22
[36] Cc1ccc(CNC(=O)C2CC(=O)N(C3CCCCCCC3)C2)cc1 (centres undefined)
  -0.6	0.7	.	.	.	.	-1%	.	-10
[37] COc1ccc(C2C(C#N)=C(N)OC3=C2C(=O)CCC3)cc1Cn1nc(C)c([N+](=O)[O-])c1C (centres undefined)
  -2.6	0.72	.	.	.	.	6%	.	19
[38] COc1ccc(S(=O)(=O)N(C)C[C@H]2OCCCC[C@@H](C)Oc3ccc(N(C)C)cc3C(=O)N([C@H](C)CO)C[C@@H]2C)cc1
  1.0	.	8&-3	4&-2	2.8&-1.3	6.1&1.1&13	2%	i	.
[39] Cc1ccc(C(=O)OCC(=O)NNC(=O)c2ccccc2)c(O)c1
  4.8	.	5	7	3.9	-3.0	.	i	2
[40] COc1ccccc1OCc1cc(C(=O)NCCN2CCCC(O)C2)no1 (centres undefined)
  0.2	0.71	15	8	0.4	1.0	.	i	-5
[41] COc1ccc(NC(=O)N(C)C[C@H]2Oc3cc(C#CCN(C)C)ccc3S(=O)(=O)N([C@H](C)CO)C[C@H]2C)cc1
  .	.	-1	-5	1.0	4.6	.	i	.
[42] Cc1nc(CN2CCOCC2)cc(=O)[nH]1
  -2.0	0.72	.	.	.	.	-1%	.	.
[43] Cc1ccc(-c2cc3nc(NCCOc4ccccc4Cl)n(C)c(=O)c3s2)cc1
  -2.1	.	9	17	-0.5	-1.0	.	i	.
[44] O=C(COC(=O)c1ccc(S(=O)(=O)N2CCOCC2)cc1)NC1CCCCCC1
  -0.2	0.71	-3	10	-6.3	-40	-3%&-1%	i	1
[45] O=C(NCCCN1CCCCC1)c1ccc(CS(=O)c2ccc(F)cc2)o1 (centres undefined)
  0.1	0.68	10	2	0.9	-3.0	-10%	i	-1
[46] CC(C)c1nc2cc(C(=O)N3CCNC(=O)C3c3cccc(F)c3)ccc2o1 (centres undefined)
  0.5	0.7	3	5	0.9	1.4	.	i	0
[47] CC1CCCCN1C(=O)NC12CC3CC(CC(C3)C1)C2 (centres undefined)
  -0.5	0.7	.	.	.	.	3%	.	0
[48] CCOc1ccc(C(=O)Nc2ccc(N3CCCC3)cc2)cc1
  7.5	0.69	.	.	.	.	-1%	.	8
[49] CS(=O)(=O)N1CCC(C(=O)Nc2ccccc2)CC1
  0.1	0.66	.	.	.	.	64%	.	-5
[50] COc1ccc(NC(=O)Nc2cccc3c2O[C@@H](CN(C)Cc2ccc(-c4ccccc4)cc2)[C@H](C)CN([C@H](C)CO)C3=O)cc1
  .	.	0	4	-2.7	1.3	.	i	.
[51] O=C(COc1ccccc1)NNC(=O)c1cccs1
  1.1	0.74	9	7	-1.0	-2.2	-5%	i	-15
[52] COc1ccc(Nc2c3ccccc3nc3ccccc23)cc1
  -1.9	0.55	0	-37	7.6	13	.	i	100*
[53] CCCCCCCOc1ccc(C2(C)NC(=O)NC2=O)cc1 (centres undefined)
  2.4	0.63	-1	-1	0.6	-2.6	-5%	i	-17
[54] CN(C)C(=O)c1ccc(-c2ccc([C@@H]3[C@@H](C#N)N(C(=O)C4CCOCC4)[C@H]3CO)cc2)cc1
  .	.	7	19	1.2	-1.1	.	i	.
[55] Cc1ccc(S(=O)(=O)NCC(=O)OCC(=O)NCc2ccco2)cc1
  -1.6	0.68	26	12	4.9	-1.4	.	i	-11
[56] CCc1ccc(C(=O)CSc2n[nH]c(C)n2)cc1
  -1.4	0.65	.	.	.	.	17%	.	16
[57] CC(C)(C)c1ccc(S(=O)(=O)NCCc2ccncc2)cc1
  2.0	0.74	.	.	.	.	6%	.	-5
[58] CC(=O)c1cccc(S(=O)(=O)N2CCN(c3ccccc3F)CC2)c1
  0.9	0.68	-6	-10	8.4	-1.6	-2%	i	16
[59] O=C(CCl)Nc1cc(-c2ccccc2)nn1-c1ccccc1
  -0.4	0.7	.	.	.	.	22%	.	98*
[60] CCn1c(SCC(=O)Nc2nc(C)c(C)s2)nnc1-c1cccnc1
  -1.0	0.63	-1	7	-1.8	-3.7	-1%	i	-1

(more compounds)
Values run as follows: HNF4A DNA FP	Ecoli growth	rRNA inh HTS	rRNA inh HTS OD600	rRNA inh HTS RFP	AF4-AF9 inh	Vif A3G	FGF22 binding	ALR inh
[61] COCCn1c(=S)[nH]c2cc(C(=O)N3CCc4ccccc43)ccc2c1=O
  3.8	0.72	.	.	.	.	?	.	-7
[62] CC(C(=O)Nc1ccc2nccnc2c1)N1C(=O)C2C3C=CC(C3)C2C1=O (centres undefined)
  4.1	0.73	9	17	-1.8	-3.8	-9%	i	-9
[63] COc1cc2ccccc2cc1C(=O)Nc1ccc(Br)cn1
  1.2	0.71	3	7	-1.2	-13	.	i	-6
[64] O=C1c2ccccc2/C(=C\c2ccc(O[C@@H]3CCCCO3)cc2)N1c1ccccc1
  .	.	-37	-51	-7.8	10	.	i	.
[65] O=C1CCCc2ccccc2N1Cc1ccc(Cl)cc1
  -2.0	0.71	.	.	.	.	-4%	.	2

Screens as filed in PubChem BioAssay.

Only part of the results is shown; the hit share may differ from the screen's.
